# Measles inh – inhibitors of measles virus growth in cells, primary screen, measles RdRp inhibitor project, cell-based, single point, HTS; infected Vero cells, GFP fluorescence, 64 h; hits give low values; 0.1% of 33,000 active; z-score (test concentration not listed);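 active = z-score under -3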;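 also: score is relative to mean and SD of the compound wells of a plate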
# * hit, by the source's call.
SMILES,Measles inh
CN(CC(=O)Nc1ccc(Br)cc1)S(=O)(=O)c1cccs1,-0.02
O=C(c1ccccc1C(F)(F)F)N1CCN=C1SCc1ccccc1,-0.13
CC(=O)Oc1ccc(C2=NN(c3ccccc3)C(c3ccccc3)C2)cc1 (configuration not stated),-1.3
O=C(CN1CCN(Cc2cccc(Cl)c2)C1=O)N1CCc2ccccc2C1,-0.53
CC1(C)CC(=O)c2c(nc3ccccc3c2NCCO)C1,-0.72
COC(=O)c1c(NC(=O)COc2ccc(C(C)(C)c3ccccc3)cc2)sc2c1CCC2,0.44
O=C(O)c1cccc(NC(=O)c2c(C(=O)O)cccc2[N+](=O)[O-])c1,0.59
O=C(CN1C(=O)CSc2ccc(S(=O)(=O)N3CCOCC3)cc21)NCCN1CCN(c2ccccc2)CC1,0.58
CCOC(=O)c1cnc2ccc(C)cc2c1Nc1ccc(OCC)cc1,-0.53
COc1ccc(C(=O)Nc2cccc(NC(=O)c3cccc(Cl)c3)c2)cc1OC,1
CC(C)C(CC(=O)O)NS(=O)(=O)c1ccc(F)cc1 (configuration not stated),-1.3
O=[N+]([O-])c1ccc(OCC(O)Cn2c(CO)nc3ccccc32)cc1 (configuration not stated),-1
O=C(Nc1ccc(N2CCOCC2)cc1)c1ccccc1Br,1.1
O=c1c2cc(N3CCCCC3)ccc2[nH]c(=S)n1Cc1ccccc1,-0.84
Cc1ccc(-n2c(SCc3ccc(C(F)(F)F)cc3)nc3c(c2=O)SCC3)cc1,1.7
Cc1ccc(COc2ccc3c4c(c(=O)oc3c2C)CCC4)cc1,-0.64
CCc1ccc(N2C(=O)C(Cl)=C(N3CCOCC3)C2=O)cc1,-0.84
CC(C)OC(=O)c1c(NC(=O)c2nn(C)cc2[N+](=O)[O-])sc2c1CCCC2,-1.5
O=C1CCCC2=C1C(c1cccs1)C1=C(N2)c2ccccc2C1=O (configuration not stated),-1.1
COc1cccc(-c2nc(-c3ccccc3)c(-c3cc([N+](=O)[O-])ccc3C)[nH]2)c1OC,-0.45

# Of the compounds above, 8 contain a halogen.
SMILES,Measles inh
CN(CC(=O)Nc1ccc(Br)cc1)S(=O)(=O)c1cccs1,-0.02
O=C(c1ccccc1C(F)(F)F)N1CCN=C1SCc1ccccc1,-0.13
O=C(CN1CCN(Cc2cccc(Cl)c2)C1=O)N1CCc2ccccc2C1,-0.53
COc1ccc(C(=O)Nc2cccc(NC(=O)c3cccc(Cl)c3)c2)cc1OC,1
CC(C)C(CC(=O)O)NS(=O)(=O)c1ccc(F)cc1 (configuration not stated),-1.3
O=C(Nc1ccc(N2CCOCC2)cc1)c1ccccc1Br,1.1
Cc1ccc(-n2c(SCc3ccc(C(F)(F)F)cc3)nc3c(c2=O)SCC3)cc1,1.7
CCc1ccc(N2C(=O)C(Cl)=C(N3CCOCC3)C2=O)cc1,-0.84

# More records
SMILES,Measles inh
CC1(C)CC(=O)N(CC(=O)NCCc2ccc(Cl)cc2)c2ccccc2S1,-0.34
CCCCN(C)C(=O)c1cn(CC)c2ccc(S(=O)(=O)N3CCCCC3)cc2c1=O,1.2
Cn1c(=O)c(-c2nc3ccccc3[nH]2)c(O)c2ccccc21,0.75
COCCc1nnc(NC(=O)c2ccc([N+](=O)[O-])cc2)s1,-0.16
COc1cc(OC)c(NC(=O)c2sc3nc(C)nc(N4CCCCC4)c3c2C)cc1Cl,1
c1ccc(-c2noc(CN3CCN(Cc4ccc5c(c4)OCO5)CC3)n2)cc1,0.28
CCS(=O)(=O)N1CCC(C(=O)N2CCc3ccccc3C2)CC1,-1.1
CCC(C)NC(=O)c1ccc2nc(-c3ccco3)c(-c3ccco3)nc2c1 (configuration not stated),-1
COC(=O)c1[nH]nc(C(=O)c2nc(Cl)ccc2Cl)c1C(=O)OC,-1.3
O=C(Nc1ccc([N+](=O)[O-])cc1Cl)c1cccs1,-0.93
COc1ccc(OCc2nc3ccccc3n2CC(=O)N(c2ccccc2)C(C)C)cc1,-0.45
CC1=C(C(=O)OCc2ccc(C)cc2)C(c2ccccc2OC(C)C)NC(=O)N1 (configuration not stated),1.7
CCN(c1cccc(C)c1)S(=O)(=O)c1cccc2nsnc12,-0.28
Cc1ccc(CSc2cn(CCNC(=O)c3cccs3)c3ccccc23)cc1,0.17
CCCOC(=O)c1ccc(NC(=O)COc2ccc(C)cc2)cc1,1.2
Cc1ccccc1CN1CCN(S(=O)(=O)c2ccc(C(C)C)cc2)CC1,1.1
CC(Nc1cc(N2CCN(S(=O)(=O)c3ccc(Cl)cc3)CC2)ccc1[N+](=O)[O-])C12CC3CC(CC(C3)C1)C2 (configuration not stated),-1.2
COc1ccc(Nc2ncc(C(=O)Nc3ccc(C(C)C)cc3)c3ccccc23)cc1,-1.1
NC(=O)c1ccc(NC(=O)c2ccc(COc3ccc(F)cc3)o2)cc1,0.04
CCCC(=O)N1c2ccccc2-c2nnc(SC)nc2OC1c1sccc1C (configuration not stated),0.52
Cc1cc(C(F)(F)F)nc(SCC(=O)NCc2cccc(C(F)(F)F)c2)n1,0.79
CCOc1ccc(N=C2SC(C(=O)Nc3ccc(C(=O)O)cc3)CC(=O)N2C)cc1 (configuration not stated),0.21
FC(F)Oc1cc(Cl)ccc1C1=CC(c2ccc(Br)cc2)n2ncnc2N1 (configuration not stated),-0.31
Cc1nc(N2CCN(Cc3ccc4c(c3)OCO4)CC2)c2cc(-c3ccccc3)sc2n1,-0.42
OCCCc1nc2n(n1)C(c1cccs1)C=C(c1ccc(Br)cc1)N2 (configuration not stated),1.3
COc1cc(C2/C(=C(\O)c3ccc(Cl)cc3)C(=O)C(=O)N2CC(C)C)ccc1O (configuration not stated),-0.79
CSc1nc(-c2ccccc2)nc(SC)c1C(C)=O,0.11
CN(C)c1ccc(CNCCC2(Cc3ccccc3)CCOC(C)(C)C2)cc1 (configuration not stated),0.06
COC(=O)c1ccc(C(=O)OCCCc2nc3ccc([N+](=O)[O-])cc3[nH]2)cc1,0.59
Cc1cc([N+](=O)[O-])nn1CCCC(=O)Nc1sc2c(c1C#N)CCC2,2.1
COc1cc2ccccc2cc1C(=O)NCCc1ccccc1,-0.17
O=C(Nc1c2c(nn1-c1ccc(F)cc1)CSC2)C12CC3CC(CC(C3)C1)C2,-1.8
CC1CCN(S(=O)(=O)c2ccc3nc(-c4cccnc4)cc(C(=O)NCc4ccccn4)c3c2)CC1,-0.65
COc1cc2c(cc1OC)C(C(=O)NCC1COc3ccccc3O1)C(c1cccs1)N(C)C2=O (configuration not stated),-0.48
N#CC1(NC(=O)c2cc3ccccc3oc2=O)CCCCC1,0.11
O=C(COC(=O)C1CC(=O)N(c2ccccc2)C1)c1ccc(-c2ccccc2)cc1 (configuration not stated),-0.83
COc1cccc(NC(=O)c2cc3c(-c4cccc(OC)c4)nn(C)c3s2)c1,-0.74
COc1ccccc1Nc1ncc(C(=O)NCc2ccco2)c2ccccc12,-0.63
CCCCCn1c(=O)[nH]c2cc(C(=O)NCc3ccc(OC)cc3)ccc2c1=O,1.5
Nc1c(C(=O)c2ccc(Cl)cc2)sc2nc3c(c(-c4ccco4)c12)CCC3,-0.22

# Structures shown so far that have a furan ring, fused or not:
SMILES,Measles inh
CCC(C)NC(=O)c1ccc2nc(-c3ccco3)c(-c3ccco3)nc2c1 (configuration not stated),-1
NC(=O)c1ccc(NC(=O)c2ccc(COc3ccc(F)cc3)o2)cc1,0.04
COc1ccccc1Nc1ncc(C(=O)NCc2ccco2)c2ccccc12,-0.63
Nc1c(C(=O)c2ccc(Cl)cc2)sc2nc3c(c(-c4ccco4)c12)CCC3,-0.22

# Some of these compounds in order of SMILES length, highest first:
SMILES,Measles inh
Cc1cc(C(F)(F)F)nc(SCC(=O)NCc2cccc(C(F)(F)F)c2)n1,0.79
Cc1ccccc1CN1CCN(S(=O)(=O)c2ccc(C(C)C)cc2)CC1,1.1
Cn1c(=O)c(-c2nc3ccccc3[nH]2)c(O)c2ccccc21,0.75

# (list continues)
SMILES,Measles inh
CCOc1cccc2cc(C(N)=O)c(=Nc3sc4c(c3C(N)=O)CCCC4)oc12,1.2
COC(=O)c1ccc(C2C(C(=O)OCCOc3ccccc3)=C(C)NC3=C2C(=O)CCC3)cc1 (configuration not stated),-0.3
CCCCOc1ccc(C(=O)Nc2cc3cc(Br)ccc3oc2=O)cc1,-1.1
Cc1cc(Cl)ccc1OCC(=O)Nc1ccccc1C(=O)Nc1ccccc1,0.94
CC(C)(C)NC(=O)C1C(=O)CNC23CCCCC2C1c1ccccc1O3 (configuration not stated),0.76
COc1ccccc1CNC(=O)C(C)N1C(=O)COc2ccc(C)cc21 (configuration not stated),0.33
Cc1cccc2sc(=NC(=O)c3ccc(S(=O)(=O)N4CCCCC4)cc3)n(C)c12,2.1
COc1nsc(I)c1C#N,-0.43
C=CCSc1ncccc1C(=O)NCc1ccccc1,-0.46
COc1ccc(NC(=O)NCCSc2ccc(Cl)cc2)c(OC)c1,-3
CC1=C(C(=O)OCc2ccccc2)C(c2cccc(Cl)c2)N2C(=O)CCSC2=N1 (configuration not stated),1.1
CCC(SC1=NCCS1)C(=O)Nc1ccc(S(N)(=O)=O)cc1 (configuration not stated),0.71
COc1ccc(C(=O)Nc2ccc(O)c(-c3nc4ccccc4s3)c2)cc1Br,-0.33
O=C(Nc1nc(-c2cccs2)cs1)c1ccc(S(=O)(=O)N2CCc3ccccc3C2)cc1,-0.62
c1ccc(-c2cn3c4ccccc4n(CCN4CCCCC4)c3n2)cc1,-3.1*
Cc1ccc(N2C(=O)CC(Sc3nc4ccccc4s3)C2=O)cc1C (configuration not stated),-0.72
O=C1C2C3c4ccccc4C(Br)(c4ccccc43)C2C(=O)N1c1ccc([N+](=O)[O-])cc1 (configuration not stated),-0.34
CN(C)c1ccc(C2CC(c3ccc(Br)cc3)=NN2C(=O)CCC(=O)O)cc1 (configuration not stated),1.7
O=C(CCCn1c(=S)[nH]c2ccccc2c1=O)NCC1COc2ccccc2O1 (configuration not stated),1.6
CC(C)N(C(=O)C1CC(=O)OC12CCCCC2)C(C)C (configuration not stated),-0.97

# Marked active in Measles inh, of those listed so far:
SMILES,Measles inh
c1ccc(-c2cn3c4ccccc4n(CCN4CCCCC4)c3n2)cc1,-3.1*

# The list goes on:
SMILES,Measles inh
COc1cc2c(cc1OC)C(COc1ccc(F)cc1)N(C(=O)COc1ccccc1)CC2 (configuration not stated),0.03
O=C(CNC(=O)C1CCCCC1)Nc1nc(CC23CC4CC(CC(C4)C2)C3)cs1,-0.41
CC(C)Cn1cc(C(=O)N2CCCCCC2)c2c3ccccc3n(C)c2c1=O,-0.41
Cc1nn2cc(-c3ccc(Cl)cc3)nc2s1,-0.56
CCOc1cccc(C2CC(c3cccc(Br)c3)=NC(c3ccc(C(=O)OC)cc3)N2)c1O (configuration not stated),-0.84
O=C(Cn1ccc2ccccc2c1=O)NCCC(=O)N1CCN(c2ccc([N+](=O)[O-])cc2)CC1,1.2
CC(=O)Oc1ccc(N2C(=O)c3ccc(C(=O)c4cccc([N+](=O)[O-])c4)cc3C2=O)cc1,-0.25
O=C(CCS(=O)(=O)c1cccc2nsnc12)NCC1COc2ccccc2O1 (configuration not stated),-0.37
COCCNC(=O)CSc1nc2cc3c(cc2c(=O)n1Cc1ccco1)OCO3,2.3
CC1CC(C)CN(S(=O)(=O)c2ccc(C(=O)Nc3nc(-c4ccc(Cl)s4)cs3)cc2)C1 (configuration not stated),-1.6
O=C(Nc1sc2c(c1C(=O)Nc1ccc(Cl)cc1)CCC2)c1cccs1,-0.37
O=C(CSc1oc(-c2cccs2)nc1S(=O)(=O)c1ccc(Cl)cc1)NC1CCCCC1,-0.79
CCOc1ccc(NC(=O)CSc2nnc(-c3cccc(N)c3)n2C)cc1,1
CCc1ccc(Nc2nnc(-c3cc4cccc(OC)c4oc3=O)s2)cc1,-0.14
CCOc1ccc(NC(=O)c2ccccc2NC(=O)c2cccnc2)cc1,-0.01
CC1CCN(S(=O)(=O)N2CCCC(C(=O)NC(C)c3ccccc3)C2)CC1 (configuration not stated),-0.17
COc1ccc(-c2nc(N)n(C(=O)c3ccccc3Cl)n2)cc1,0
CCc1ccccc1NC1=C(Cl)C(=O)N(c2cccc(Cl)c2)C1=O,0.14
COc1ccc(OC)c2[nH]c(=O)c(CCNC(=O)c3cccc(F)c3)cc12,-0.56
CCCCNC(=O)CN1C(=O)CSc2ccc(S(=O)(=O)N3CCCCCC3)cc21,1.1
CCOC(=O)c1cnc2c(-c3ccccc3)c(C)nn2c1-c1ccccc1,-0.96
CC1(C)CC(=O)c2cc(C(=O)Nc3cccc(Cl)c3)c(=O)n(-c3ccc(Cl)cc3)c2C1,0.11
COc1ccc(C2C3=C(CC(C)(C)CC3=O)Nc3nc(SC)[nH]c(=O)c32)cc1 (configuration not stated),-0.1
[O-][n+]1c2ccc3nonc3c2nn1-c1ccccc1,0.57
CCOC(=O)c1c(C)oc2c(Cl)cc(NS(=O)(=O)c3ccc(OCC)cc3)cc12,0.15
CCCCOc1ccc(C2C(C(=O)OC(C)C)=C(C)N=C3SCCC(=O)N32)cc1 (configuration not stated),1.3
CC(C)c1ccc(NC(=O)c2ccc(F)c(S(=O)(=O)NCc3ccccc3Cl)c2)cc1,0.75
CC(=O)C1C(c2ccc(C(=O)O)cc2)NC(=O)NC1(O)C(F)(F)F (configuration not stated),-0.12
Cc1ccnc(NS(=O)(=O)c2ccc(CC(C)C)cc2)c1,0.75
COc1ccc(Cn2c(=O)[nH]c3cc(C(=O)NCc4ccccc4OC)ccc3c2=O)cc1,-0.31
O=C(O)c1cc(-c2ccccc2)nc2cc3nc(-c4ccccc4)cc(C(=O)O)c3cc12,0.76
O=C(CN1CCCN(S(=O)(=O)c2ccc(Br)cc2)CC1)Nc1ccc2c(c1)OCO2,0.41
COC(=O)c1ccc(C(=O)OC)c(NC(=O)c2cccc(OC)c2)c1,0.24
Cc1ccc2oc(-c3cc(NC(=O)CC(C)C)ccc3Cl)nc2c1,2.9
CCCC(=O)C1CCN(C(=O)c2ccc(C(C)(C)C)cc2)CC1,-0.74
Cc1ccccc1NS(=O)(=O)c1cccc2nsnc12,0.3
Cc1ccc(C2=NN(CC(=O)NCc3cccnc3)C(=O)CC2)cc1,0.45
Cc1ccccc1N1C(=O)C2C3C=CC(O3)C2C1=O (configuration not stated),-0.4

# Compound activity from PubChem BioAssay.

# Not all compounds are listed; count on the stated rates, not on these rows.
